Screening results from PubChem BioAssay.
Mtb H37Rv = Mycobacterium tuberculosis H37Rv growth inhibition, cell based, confirmatory dose response (AID 1949) | most inactive calls were filed without a number and no value below 0 was filed | 100,000 compounds, 1.6% hits | inhibition, % at 10 µg/mL; hits with a dose series show IC50 in µg/mL | M. tuberculosis H37Rv growth inhibition;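 active = confirmed in a dose series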;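 note: bacteria grown 7 days with compound before Alamar blue readout; 0% = untreated bacteria and 100% = reference antibiotic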
* marks the source's active call; other numbers are inactive results; i = inactive. Not all compounds are listed, so the mix of outcomes need not match the whole.

| Structure | Mtb H37Rv |
| --- | --- |
| Cc1ccc(C(C)C)c(OC(=O)CSc2ccccc2[N+](=O)[O-])c1 | i |
| O=C(NCc1cccs1)Nc1ccc(F)cc1F | i |
| O=C(Nc1ccccc1C(=O)O)c1ccc(Br)c(S(=O)(=O)N2CCOCC2)c1 | i |
| COc1ccc(Oc2c(-c3ccc(O)c(C)c3O)n[nH]c2C)cc1 | 3% |
| COc1ccc(Nc2ccnc3cc4ccccc4cc23)cc1 | 0.74µg/mL* |
| COc1ccc(OC(C)C(=O)Nc2cccc3c2CCCC3)cc1 (stereo unspecified) | i |
| O=C(Nc1cccc(C(=O)NC2CCCC2)c1)c1ccccc1 | i |
| COC(=O)c1sccc1NC(=O)c1csc(C)c1-c1ccccc1 | i |
| Cc1cc(C=O)c(C)n1-c1ccc(N2CCOCC2)cc1 | i |
| COc1cccc(C(=O)N2CCN(C(=O)c3cccs3)CC2)c1OC | i |
| COc1cc(NS(=O)(=O)c2cc(Cl)ccc2Cl)cc(OC)c1OC | i |
| COc1cc(NS(=O)(=O)c2ccc3ccccc3c2)c(OC)cc1Cl | 3% |

(next part)
| Structure | Mtb H37Rv |
| --- | --- |
| COc1ccc(CCNC(=S)Nc2nn(Cc3ccc(Cl)cc3Cl)cc2Cl)cc1OC | 0% |
| CCOC(=O)c1sc(NC(=O)Nc2ccc(Cl)cc2)nc1C | i |
| CCN(C(=O)c1cc2ccccc2oc1=O)c1cccc(C)c1 | i |
| CCS(=O)(=O)c1c(S(=O)(=O)CC)c2cc(C(C)(C)C)ccn2c1C(=O)c1ccc(F)cc1 | i |
| Cc1ccccc1C(=O)NC(c1ccccc1)C1CCCC1 (stereo unspecified) | i |
| CS(=O)(=O)N(CC(=O)Nc1ccc(F)c(Cl)c1)c1ccc(I)cc1 | i |
| NCCc1c[nH]c2c(Cl)cc(Cl)cc12 | 1% |
| O=C(COc1ccccc1)NC(=S)Nc1cccc([N+](=O)[O-])c1 | i |
| CCC(C)NCCCCOc1cc(C)cc(C(C)C)c1 (stereo unspecified) | i |
| CCOc1cccc(C(=O)Nc2cc(C(F)(F)F)ccc2Cl)c1 | 20% |
| Cc1cccc(C)c1-n1[nH]nnc1=S | i |
| O=C(Nc1ccc(I)cc1)c1ccccc1C(F)(F)F | 7% |

An excerpt of these results, with each value named:
Cc1ccc(C(C)C)c(OC(=O)CSc2ccccc2[N+](=O)[O-])c1
  Mtb H37Rv = i

O=C(NCc1cccs1)Nc1ccc(F)cc1F
  Mtb H37Rv = i

O=C(Nc1ccccc1C(=O)O)c1ccc(Br)c(S(=O)(=O)N2CCOCC2)c1
  Mtb H37Rv = i

COc1ccc(Oc2c(-c3ccc(O)c(C)c3O)n[nH]c2C)cc1
  Mtb H37Rv = 3%

Next section:
| Structure | Mtb H37Rv |
| --- | --- |
| CCCCc1ccc(NC(=S)N2CCN(C(=O)C3CCCO3)CC2)cc1 (stereo unspecified) | i |
| O=[N+]([O-])c1cnccc1Nc1cccc(C2=NCCN2)c1 | 0% |
| COc1cccc(CNC(=S)Nc2ccc(Cl)cc2C)c1 | 5% |
| O=S(=O)(O)c1ccc(N2CCC(c3ccc(Cl)cc3)=N2)cc1 | i |
| CC(=O)C1C(=O)Oc2ccc(Br)cc2C1C(C)C(=O)c1ccccc1 (stereo unspecified) | i |
| CC(C)(C)NS(=O)(=O)c1ccc(NC(=O)COc2ccc([N+](=O)[O-])cc2)cc1 | i |
| CCOC(=O)C1=C(C)NC2=C(C(=O)CCC2)C1c1ccc(N(CC)CC)cc1 (stereo unspecified) | i |
| Cc1c(C(=O)NNC(=S)NCC2CCCO2)oc2ccccc12 (stereo unspecified) | 20% |
| CNC(=O)COc1ccccc1C(=O)Nc1ccc2c(c1)oc1ccccc12 | i |
| Cc1ccc(C)c(N2C(=O)C3C4C=CC(C4=C4CCCCC4)C3C2=O)c1 (stereo unspecified) | i |
| COc1cccc(-n2c(-c3ccncc3)n[nH]c2=S)c1 | i |
| COc1cc(C(=O)N2CCN(C3CCC(C)CC3)CC2)cc(OC)c1OC (stereo unspecified) | i |

Reprinted at random: 4 records from the list
| Structure | Mtb H37Rv |
| --- | --- |
| CC(=O)C1C(=O)Oc2ccc(Br)cc2C1C(C)C(=O)c1ccccc1 (stereo unspecified) | i |
| O=S(=O)(O)c1ccc(N2CCC(c3ccc(Cl)cc3)=N2)cc1 | i |
| COc1cccc(-n2c(-c3ccncc3)n[nH]c2=S)c1 | i |
| CCOC(=O)C1=C(C)NC2=C(C(=O)CCC2)C1c1ccc(N(CC)CC)cc1 (stereo unspecified) | i |

Carrying on:
| Structure | Mtb H37Rv |
| --- | --- |
| Cc1cccn2cc(-c3cccc(S(=O)(=O)N4CCOCC4)c3)nc12 | 2% |
| O=C(O)C1CC(=O)N(c2ccc(Cl)cc2Cl)C1 (stereo unspecified) | 1% |
| CCC(=O)Nc1ccccc1C(=O)Nc1ccccc1 | i |
| O=C(O)c1ccc(COCC(F)(F)F)cc1 | i |
| CCC(C(=O)Nc1ccc([N+](=O)[O-])cc1OC)c1ccccc1 (stereo unspecified) | i |
| CC(NC(=O)C(c1ccccc1)c1ccccc1)C(=O)Nc1ccc(Br)cc1 (stereo unspecified) | i |
| NC(=S)Cc1ccc(CC(N)=S)o1 | 3% |
| COc1cc(Br)c(C2C3=C(CC(C)(C)CC3=O)NC3=C2C(=O)CC(C)(C)C3)cc1OC | i |
| CC(Cc1ccccc1)NC(=O)c1ccccc1[N+](=O)[O-] (stereo unspecified) | 45% |
| COC(=O)c1ccccc1NC(=S)NC(=O)c1ccc(C)c(I)c1 | i |
| CCCC(=O)N1CCN(Cc2ccc3c(c2)OCO3)CC1 | i |
| O=C(Nc1ncccc1Cl)C1c2ccccc2Oc2ccccc21 | i |

Additional compounds
| Structure | Mtb H37Rv |
| --- | --- |
| CC(C)C(=O)Nc1ccc(NC(=S)NC(=O)c2cccc(COc3ccccc3)c2)cc1 | 2% |
| CCOC(=O)C1=C(C)Nc2ncnn2C1c1ccccn1 (stereo unspecified) | i |
| Cc1ccc(S(=O)(=O)NCC(=O)Nc2ccc(F)cc2F)cc1 | i |
| CCOC(=O)c1c(NC(=O)c2cc(Br)cc(C)c2OC)sc(C(=O)OC)c1C | i |
| CC(C)C(=O)Nc1ccc(C(=O)Nc2ccc(F)c(Cl)c2)cc1 | i |
| Nc1ccc(Oc2cccc(Cl)c2)cc1 | 17% |
| Cc1csc(NC(=O)c2cccs2)n1 | i |
| Cc1sc(NC(=S)NC(=O)c2ccco2)c(C(N)=O)c1C | i |
| COc1ccc(OC)c(NC(=S)NC(=O)c2ccccc2Br)c1 | i |
| Cc1ccc(OCCCCNCCN)c([N+](=O)[O-])c1 | i |
| CCCCC(CC)Cn1c(SCC(=O)Nc2ccc(OC)cc2)nc2c1c(=O)n(C)c(=O)n2C (stereo unspecified) | 2% |
| O=C1CC(c2nc3ccccc3n2Cc2ccccc2F)CN1c1cccc2ccccc12 (stereo unspecified) | i |

Copied from the list.
Nc1ccc(Oc2cccc(Cl)c2)cc1 @ Mtb H37Rv = 17%
CC(C)C(=O)Nc1ccc(NC(=S)NC(=O)c2cccc(COc3ccccc3)c2)cc1 @ Mtb H37Rv = 2%
CCCCC(CC)Cn1c(SCC(=O)Nc2ccc(OC)cc2)nc2c1c(=O)n(C)c(=O)n2C (stereo unspecified) @ Mtb H37Rv = 2%

Next section:
| Structure | Mtb H37Rv |
| --- | --- |
| COc1ccc2c(c1)c(CC(=O)NCC(N)=O)c(C)n2C(=O)c1ccc(Cl)cc1 | i |
| O=C(COC(=O)c1cnccn1)c1ccc(OC(=O)c2ccccc2)cc1 | i |
| O=S(=O)(c1ccccc1)N1CCN(Cc2ccccc2Br)CC1 | i |
| Cc1nn(-c2ccccc2)c(OC(=O)COc2ccc(F)cc2)c1S(=O)(=O)c1ccccc1 | 2% |
| CC(C)(C)NS(=O)(=O)c1ccc(NC(=S)NC(=O)CCc2ccccc2)cc1 | 2% |
| Cc1ccc(S(=O)(=O)CC2CSc3nc4ccccc4n32)cc1 (stereo unspecified) | i |
| CCOc1ccc(N(CC(=O)NC2CCCCCC2)S(=O)(=O)c2ccc(SC)cc2)cc1 | i |
| Cc1cccnc1NC(=O)Nc1ccc(Cl)c(Cl)c1 | 0% |
| Nc1nnc(SCc2cccc(Br)c2)s1 | i |
| Cc1ccc(C(C)C)c(Oc2ccc(NC(=O)CCC(=O)O)cc2)c1 | i |
| CCOc1ccc(C(=O)Nc2ccc(N(C)C)cc2)cc1Br | i |
| O=C(NCCN1CCOCC1)c1cnn2c(-c3ccccc3)cc(-c3ccccc3)nc12 | 14% |

Next part, starting with the last 4 of the part before.
| Structure | Mtb H37Rv |
| --- | --- |
| Nc1nnc(SCc2cccc(Br)c2)s1 | i |
| Cc1ccc(C(C)C)c(Oc2ccc(NC(=O)CCC(=O)O)cc2)c1 | i |
| CCOc1ccc(C(=O)Nc2ccc(N(C)C)cc2)cc1Br | i |
| O=C(NCCN1CCOCC1)c1cnn2c(-c3ccccc3)cc(-c3ccccc3)nc12 | 14% |
| O=C(CN(c1ccccc1)S(=O)(=O)c1ccccc1[N+](=O)[O-])Nc1ccc(I)cc1 | i |
| CCOc1ccc(Nc2oc(-c3cccs3)nc2C#N)cc1 | i |
| CCC(=O)c1ccc(OCC(O)CN2CCN(S(=O)(=O)N3CCCCC3)CC2)cc1 (stereo unspecified) | i |
| O=C(Cc1ccccc1)NNC(=O)Cc1ccccc1 | 3% |
| Cc1ccc(OCCNS(=O)(=O)c2ccc([N+](=O)[O-])cc2)cc1 | i |
| COc1ccccc1CN1CCN(S(=O)(=O)c2ccc3ccccc3c2)CC1 | 4% |
| O=C(Cc1ccc(Cl)c(Cl)c1)NNC(=S)NCC1CCCO1 (stereo unspecified) | i |
| CCCCOc1ccc(-c2ncc(N)cn2)cc1 | i |
| C=CCn1c(CCCOc2ccc(Cl)cc2Cl)nnc1SCC(=O)Nc1nccs1 | i |
| COc1ccc(NC(=O)C2=C(C)NC3=C(C(=O)CCC3)C2c2cccc(C(F)(F)F)c2)cc1 (stereo unspecified) | i |
| Cc1cc(C)n2c(SCc3nnnn3-c3ccccc3)nnc2n1 | i |
| CC1(C)CC(=O)c2cnc(NC(=O)Nc3ccc(Cl)c(Cl)c3)nc2C1 | i |

New compounds follow:
| Structure | Mtb H37Rv |
| --- | --- |
| COc1ccc(-c2cc(O)cc(O)c2)cc1 | i |
| O=C(Cn1nc(-c2cccc([N+](=O)[O-])c2)c2ccccc2c1=O)N1CCCC1 | 1% |
| Cc1cc(C)c(NC(=O)CS)c(Cl)c1 | i |
| COCCNc1oc(-c2cccs2)nc1C#N | i |
| Nc1nc(-c2ccccc2)c(C(=O)Nc2ccc(Cl)c(Cl)c2)s1 | i |
